Screening data (PubChem BioAssay)
Sfp PPTase inh: inhibitors of Bacillus subtilis Sfp phosphopantetheinyl transferase | Potency, µM, inactives show max response, negative = inhibition, usual class: inhibitors | Biochemical Sfp PPTase activity, qHTS | AID 1490 | hit rate 3.5% among 310,000 | Q9F4F7; active means well fitted inhibition curve with a large enough effect; inconclusive means small, poorly fitted or top-dose-only effect, or another doubt; inactive means no such curve, though single readings can be large or run the other way;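 further: the enzyme is Sfp with the accession as filed and its product quenches rhodamine fluorescence; potency means the concentration at half of the fitted maximal effect; 0% = enzyme reaction without inhibitor and -100% = no enzyme wells; top concentration of the series not given in the record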
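Compounds were incubated with enzyme (final 15 nM) for 15 min at room temperature before substrate addition started the reaction. Fluorescence at 525 nm excitation, 598 nm emission was recorded immediately and after 30 minutes.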
Menin MLL FP FL: displaces fluorescein MLL peptide from human menin. Fluorescence polarization, fluorescein-MLL peptide displacement from menin. FP activity change, % at 61.4 µM. 290,000 tested, under 10 active. AID 1766; inconclusive = falling polarisation curve, or a change in total fluorescence; inactive = total fluorescence flat and polarisation flat or rising; no compound was filed as active; the % refers to the polarisation; negative = inhibition;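 further: % of control where 0% means no effect; inhibitors lower the polarisation; unlabelled MLL peptide was the positive control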
gsp antagonist: gsp mutant antagonism | hit rate 0.4% among 340,000 | gsp-mutant cells, cAMP HTRF, 30 min; control for the full effect not named in the record | Potency, µM (doses to about 76.9 µM), for inactives: at the highest dose activity change, negative = inhibition, usual class: inhibitors; active = falling curve of any shape with a large fitted effect; inconclusive = falling curve, mostly with a smaller effect; inactive = flat or rising curve; cell line not stated here;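 further: intracellular cAMP measured with PDE inhibitor Ro 20-1724 present during compound exposure; potency means the concentration at half of the fitted maximal effect; on the % scale 0 is the no-effect control and ±100 the full control effect; nearly all actives have a fitted effect of over 65% in size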
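G418-selected cells were plated in DMEM/10% FBS for 16-24 h at 37C, then treated with compounds plus the PDE inhibitor […] (300 uM solution added) for 30 min at 37C. Intracellular cAMP was measured by HTRF after 30 min lysis at room temperature.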
gsp agonist: activates gsp, the McCune-Albright syndrome mutation. hit rate 0.13% among 340,000. gsp mutant cells, cAMP HTRF, 30 min; control for the full effect not named in the record. AID 624287. Potency, µM (series often up to 76.9 µM), without a hit: top-dose activation (cAMP increase), actives largely listed as activators; active = well fitted activation curve with a large enough effect; inconclusive = small, poorly fitted or top-dose-only effect, or another doubt; inactive = no such curve, though single readings can be large or run the other way; cell line not stated here;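 further: phosphodiesterase inhibitor Ro 20-1724 added with compounds to block cAMP breakdown; potency means the concentration at half of the fitted maximal effect; nearly all actives have a fitted effect of over 60% in size; about a fifth of the inactives were tested at one dose only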
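Cells stably selected in G418 were plated at 2000/well, grown 16-24 hr, then given compounds in DMSO with the PDE inhibitor […] (300 uM solution added) for 30 min at 37C; cAMP was read by HTRF.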
ClpP mod: qHTS Assay for Activators of ClpP | ATP-dependent Clp protease proteolytic subunit (Bacillus subtilis (strain 168)), P80244 | purified B. subtilis ClpP, FRET peptide cleavage, 20 min | Potency, µM (highest dose often 57.5 µM), without a hit: at the highest dose activity change, negative = active | hit rate 1.9% among 340,000 | AID 651965, 2013; active = well fitted falling curve with a large enough effect; inconclusive = small, poorly fitted or top-dose-only effect; inactive = no such curve, though single readings can be large or run the other way; further: potency means the concentration at half of the fitted maximal effect; the source files actives as falling curves though it sought activators and does not explain the sign; nearly all actives have a fitted effect of over 65% in size; many hits overshoot -100%
Target sequence (P80244 whole entry, looked up): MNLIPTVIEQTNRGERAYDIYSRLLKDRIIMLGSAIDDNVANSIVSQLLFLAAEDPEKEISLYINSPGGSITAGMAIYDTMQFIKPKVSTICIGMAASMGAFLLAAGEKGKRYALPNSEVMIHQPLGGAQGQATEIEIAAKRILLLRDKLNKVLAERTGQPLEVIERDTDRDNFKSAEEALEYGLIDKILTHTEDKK
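ClpP 10 microg/mL final, pH 8 Tris/KCl buffer with BSA, glycerol, Tween-20; compound pinned in; FRET-FV substrate; RT 20 min; Ex320/Em430; ΔFRET vs ADEP 5.8 microM, DMSO, no enzyme.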
TRPV1 potentiator: potentiators of human vanilloid receptor 1 (TRPV1); Q8NER1; TRPV1-expressing cells, Fluo-8 calcium influx, capsaicin EC20 potentiation; host cell line not named in the record; control for the full effect not named in the record; potentiation, % at 8.33 µM; hit rate 0.02% among 320,000; AID 540277; active means potentiation above 80%; inconclusive means 30% to 80%; inactive means below 30%; further: 0% is about no effect
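Fluo-8 calcium influx in TRPV1-expressing cells, kinetic read (ex 480/em 520 nm). Compound added and read 3 min for agonist activity, followed by capsaicin at EC20 final and 2 min further read for enhancement.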
D2 PAM: positive allosteric modulators of human D2 dopamine receptor; hit rate 0.23% among 360,000; DiscoveRx D2 beta-arrestin cells, luminescence, 90 min; 100% = 57 uM dopamine signal; potentiation, % (concentration not given with the values); P14416; active = potentiation of 50% or more; inconclusive = 30% to 50%; inactive = 30% or less;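 further: compound concentration not given in the record; tested on top of an EC20 dose of dopamine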
Target sequence (P14416 whole entry, looked up): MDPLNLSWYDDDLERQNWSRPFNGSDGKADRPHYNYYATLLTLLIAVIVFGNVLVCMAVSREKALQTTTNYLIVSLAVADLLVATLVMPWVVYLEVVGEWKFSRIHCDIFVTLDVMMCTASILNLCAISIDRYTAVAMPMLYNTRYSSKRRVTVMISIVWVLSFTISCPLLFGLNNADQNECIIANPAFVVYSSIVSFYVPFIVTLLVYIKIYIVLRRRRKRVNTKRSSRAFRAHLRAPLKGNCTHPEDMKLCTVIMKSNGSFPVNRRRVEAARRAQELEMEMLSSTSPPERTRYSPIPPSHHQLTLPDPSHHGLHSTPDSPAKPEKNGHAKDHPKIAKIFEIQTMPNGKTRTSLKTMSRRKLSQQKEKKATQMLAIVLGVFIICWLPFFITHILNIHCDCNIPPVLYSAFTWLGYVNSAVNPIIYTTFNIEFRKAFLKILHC
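PathHunter beta-arrestin assay in DiscoveRx D2 cells. Compounds were added with an EC20 of dopamine (50 nM final) for 90 min at 37 deg C. Luminescence was read 1 h after detection reagent, with 57 uM dopamine as the EC100 control.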
* hit, by the source's call; ? = inconclusive; . = not tested or not shown; & = joins results of further samples; [ ] = another dose, or the depositor's remark.

SMILES	Sfp PPTase inh	Menin MLL FP FL	gsp antagonist	gsp agonist	ClpP mod	TRPV1 potentiator	D2 PAM
N=c1c(C(=O)NCc2ccc(F)cc2)cc2c(=O)n3ccccc3nc2n1CCCN1CCOCC1	5%	1.4	16%	-1%	?	5	-9
CCOC(=O)N1CCC(=NNc2nc3ccccc3s2)CC1	?	2.3	-6%	-32%	-4.3%	-2	-10
O=C(N/N=C/c1ccco1)c1ccc(Br)o1	6%	1.6	5%	-32%[inhibitor]	-3.1%	17	-22
COc1ccc(Nc2nc(NCc3ccco3)nc(N)c2[N+](=O)[O-])cc1	21%	1.8	15%	-2%[15.4 µM]	.	-10	-6
CCc1nnc(NC(=O)C2CCCN(C(=O)c3ccc(Cl)cc3)C2)s1 (stereo not given)	.	.	-8%	5%	-0.8%	10	-6
O=c1oc2ccccc2cc1NCc1ccccc1O	-1%	-0.6	-22%	-17%	1.9%	-10	-1
COc1ccc2[nH]c(C(=O)O)c(NS(=O)(=O)c3ccc(Cl)s3)c2c1	1%	2.8	-8%	-51%[inhibitor]	-0.2%	12	-10
CC(=O)c1ccc(N2CCN(C(=O)C(=O)c3cn(CC(=O)N4CCOCC4)c4ccccc34)CC2)cc1	.	.	.	-75%[inhibitor]	-9.9%	.	-3
CCC(C)c1ccc(NC(=O)C2CC3CCC2C3)cc1 (stereo not given)	.	.	-11%	20%	.	.	-2
Cc1[nH]c2ccc(F)cc2c(=O)c1SC(F)(F)C(F)C(F)(F)F (stereo not given)	-13%	4.3	-18%	-12%	-5.0%	-4	3
CCc1ccc(NC(=O)Nc2c(C)n(C)n(-c3ccccc3)c2=O)cc1	19%	-1.4	12%	-4%[15.4 µM]	.	13	-11
CC(C)C[C@H](NC(=O)c1nc[nH]c1C(=O)N1CCN(c2ccccc2)CC1)C(=O)OC(C)(C)C	13%	0.2	-5%	.	1.6%	?	-3
CC(C)OC(=O)C1C2C=CC3(CN(CC4CCCO4)C(=O)C13)O2 (stereo not given)	3%&1%	1.1&0.1	-7%	18%	-0.2%	-5&9	-6
O=S1(=O)CCC(N=Nc2c(O)n(Cc3ccccc3)c3ccccc23)C1 (stereo not given)	4%	2.5	-1%	-1%	0.0%	-4	-13
CC(NC(=O)CSC(=S)N(C)C)C12CC3CC(CC(C3)C1)C2 (stereo not given)	-1%	10	-8%	?	-0.1%	-16	3
COc1ccc(S(=O)(=O)Nc2ccccc2C(=O)NCc2ccco2)cc1	-6%	2.0	-11%	-46%[inhibitor]	?	-6	-2
CCOC(=O)N1CCN(Cc2nc3cc(NC(=O)c4ccco4)ccc3n2C)CC1	1%	.	0%	4%	-1.0%	-9	-3
O=C(Nc1ccc(Br)cc1)c1cc(-c2ccc3c(c2)OCO3)on1	-3%	0.4	2%	7%[15.4 µM]	-4.5%	8	-4
O=c1cc(Nc2ccc3c(c2)OCO3)[nH]c(=O)n1-c1ccc(Br)cc1	2%	2.4	-17%	-8%	-22%	-19	8
S=C(NCC1CCCO1)c1ccc(Br)cc1 (stereo not given)	20µM*	4.7	4%	-3%[15.4 µM]	-0.8%	17	-6
C[C@@H]1CN([C@@H](C)CO)S(=O)(=O)c2ccc(Br)cc2O[C@H]1CN(C)C(=O)CN(C)C	.	.	.	-35%[inhibitor]	0.5%	.	-3
CC(=O)OC(C(=O)NC1CCCCC1)c1ccccc1Cl (stereo not given)	7%	2.8	7%	1%	-0.4%	-12	-43
Cc1ccc(N(C)S(=O)(=O)c2ccc3[nH]cc(C(=O)NCCCN4CCOCC4)c(=O)c3c2)cc1C	4%	.	-13%	?	-26%	5	-20
Cc1ccc(S(=O)(=O)N2CCN(C(=O)CCC(=O)Nc3ccc(F)cc3F)CC2)cc1	.	.	-1%	-9%	0.4%	.	-3
CC(C)N1C(=O)C(=O)N(CC(=O)N2CCc3ccccc32)C1=O	.	.	7%	5%	0.9%	-5	4
OCC(C#CCN1CCCCC1)NCc1ccccc1 (stereo not given)	5%	0.0	6%	-28%	-2.3%	-6	-29
COc1ccc(N2CCN(C(CNC(=O)C(=O)NC3CCCC3)c3ccco3)CC2)cc1 (stereo not given)	.	.	7%	12%	1.2%	0	-24
COc1cccc(C(=O)/C=C/Nc2ccc(S(=O)(=O)Nc3cc(OC)nc(OC)n3)cc2)c1	-5%	-0.8	-16%	-24%[15.4 µM]	.	12	-5
CN1C(=O)/C(=C/c2cccc([N+](=O)[O-])c2)C(=O)N1c1ccccc1	50µM*	-5.4	-8%	-2%[15.4 µM]	-1.0%	1	-7
COc1ccc(-c2cc(C(=O)NCCCN3CCCC3=O)c3ccccc3n2)cc1OC	.	.	1%	?	-6.4%	-8	-6
Cc1noc(C)c1COc1ccc(C(=O)N2CCCC(C(N)=O)C2)cc1 (stereo not given)	14%	.	9%	?	-1.9%	1	-11
CCOc1ccc(S(=O)(=O)/N=C(/Nc2ccc(C(C)=O)cc2)c2ccccc2)cc1	.	.	?	14%	.	.	-13
CC(Nc1ccccc1)c1cccnc1 (stereo not given)	8%	0.5	9%	1%	1.4%	6	-6
CC1=C(C(=O)OCCOc2ccccc2)C(c2coc3ccccc3c2=O)C2=C(CCCC2=O)N1 (stereo not given)	-11%	2.0	1%	6%	-2.7%	-4	-3
CCCN(CC(=O)Nc1ccccc1C)C(=O)/C=C/c1ccc(S(=O)(=O)N2CCCCCC2)cc1	.	.	-2%	-1%	-3.5%	5	0
COc1ccc(OC)c(Nc2ncnc3c2cnn3-c2cccc(C)c2)c1	-1%	-0.6	7%	-32%[inhibitor]	?	-30	9
CN(c1ccccc1)S(=O)(=O)c1ccc(NC(=O)C2CCCCC2C(=O)O)cc1 (stereo not given)	8%	2.6	9%	-8%	-4.9%	17	-9
COc1ccccc1N1CCN(C(=O)Cn2nc(C(F)(F)F)c3c2CCC3)CC1	9%	-1.0	-1%	7%	-19%	10	-34
COc1ccc(-c2nc3c4ccccc4[nH]c(=O)n3n2)cc1	12%	-0.5	-1%	-26%	32µM*	25	3
CC(=O)N(Cc1cccs1)C1CCOC(C)(C)C1 (stereo not given)	-1%	-2.2	7%	22%	?	-7	2
COc1ccc(NC(=O)N2CCC(n3nnc4cc(C)ccc43)CC2)cc1	2%	1.4	6%	8%	-5.1%	-5	-5
COc1ccc(C(CC(=O)N2CCCCC2)C(C)C)cc1 (stereo not given)	18%	-0.1	-3%	32%[15.4 µM]	.	-6	-2
Cc1cc(=O)oc2cc(OCC(=O)OCC(=O)N(C)C3CCS(=O)(=O)C3)ccc12 (stereo not given)	10%	3.3	5%	3%[15.4 µM]	.	6	-1
Cc1nnsc1S(=O)c1ccc(Cl)cc1 (stereo not given)	12%	-7.0	0%	-29%	-1.3%	21	-9
CCc1cccc2c(C(=S)N3CCCC3)c[nH]c12	-2%	-0.6	14%	17%	0.9%	-3	-11
Cc1ccc(C(=O)Nc2cc(C)c(OCC(=O)N3CCOCC3)c(C)c2)cc1	-5%	-4.5	4%	-21%	-2.5%	5	-1
CC(C)c1ccc(Nc2cnn(C34CC5CC(CC(CC(=O)O)(C5)C3)C4)c(=O)c2Cl)cc1	16%	-1.0	1%	-53%[inhibitor]	-5.6%	-7	-17
O=C(O)CC1(CC(=O)NCc2csc(-c3cccs3)n2)CCCCC1	-9%	7.4	-10%	24%	4.5%	?	-12
CCCCc1ccc(NC(=O)CN2NS(=O)(=O)c3ccccc3C2=O)cc1	12%	2.9	-4%	8%	-0.9%	0	13
CC1Cc2cc(-c3csc(NC(=O)CCl)n3)ccc2N1C(=O)C1CC1 (stereo not given)	.	.	11%	-10%[15.4 µM]	.	.	-3

Structures listed so far that contain a nitro group on carbon:
SMILES	Sfp PPTase inh	Menin MLL FP FL	gsp antagonist	gsp agonist	ClpP mod	TRPV1 potentiator	D2 PAM
COc1ccc(Nc2nc(NCc3ccco3)nc(N)c2[N+](=O)[O-])cc1	21%	1.8	15%	-2%[15.4 µM]	.	-10	-6
CN1C(=O)/C(=C/c2cccc([N+](=O)[O-])c2)C(=O)N1c1ccccc1	50µM*	-5.4	-8%	-2%[15.4 µM]	-1.0%	1	-7

Continued:
SMILES	Sfp PPTase inh	Menin MLL FP FL	gsp antagonist	gsp agonist	ClpP mod	TRPV1 potentiator	D2 PAM
CN(C)C(=O)NC(Nc1ccc(Cl)cc1Cl)C(Cl)(Cl)Cl (stereo not given)	10%	2.1	-26%	-49%[inhibitor]	-0.5%	-10	-9
CC(C)[C@H](NC(=O)NC1CCCc2ccccc21)C(=O)O (stereo not given in full)	8%	2.7	12%	20%	-0.3%	?	-11
Clc1ccccc1CN(Cc1ccccc1)c1ncnc2nc[nH]c12	19%	0.1	?	-32%[inhibitor]	1.3%	-2	9
Nc1nc(SCc2ccc(Cl)cc2)ns1	-9%	1.9	5%	2%	2.6%	26	-2
COC(=O)c1ccc(COC(=O)C2CCN(S(=O)(=O)c3ccccc3C(=O)OC)CC2)cc1	.	.	-2%	1%	-2.2%	.	-12
CN(C(=O)COC(=O)c1c2c(nc3ccccc13)CCCC2)c1c(N)n(Cc2ccccc2)c(=O)[nH]c1=O	.	.	2%	30%[15.4 µM]	.	-2	19
CCc1nnc(SCc2ccc(OC(C)C)cc2)n1N	10%	4.6	15%	2%	-0.1%	0	-7
Cc1ccc(CNC(=O)COC(=O)c2ccc(S(=O)(=O)N3CCCCCC3)cc2)cc1	.	.	9%	-3%	-2.6%	8	11
Cc1ccc(OC[C@H](O)[C@H](C)NC(C)C)c2c1CCC2	-19%	-11	-2%	.	0.4%	4	-13
COc1cccc(CSc2nc3cc4c(cc3cc2C)OCCO4)c1	0%	0.0	2%	-14%	?	2	-11
COc1ccccc1C(=O)Nc1ccnn1C1CCN(C(=O)C2CCOC2)CC1 (stereo not given)	-2%	5.0	19%	14%	1.6%	-5	-12
COc1ccc(OC)c(NC(=O)COC(=O)CNC(=O)c2ccc(OC)c(OC)c2)c1	17%	0.6	-5%	1%	-2.1%	4	-4
Cc1cc(C(=O)Nc2nnc(C3CCCCC3)s2)no1	-10%	1.0	-6%	-10%	0.7%	1	-2
CC(C)Cn1c(CCNC(=O)c2ccco2)nc2ccccc21	7%	.	11%	?	-1.4%	13	-21
